Bioassay records deposited in PubChem by several laboratories.
Arbovirus anti – antivirals against arbovirus infection, primary screen, cell-based, full library, 10K replicate subset; inhibition, % at 10 µM; 0.37% of 200,000 active; arbovirus infection cell-based antiviral screen; AID 1251, 2008;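 active = inhibition from about 30%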;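 note: bluetongue infection of BSR cells; cell survival read as ATP light after 72 h; 0% = infected wells without compound and 100% = uninfected wells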
YopH PTP inh – YopH tyrosine phosphatase inhibitors, primary screen, biochemical, fluorescence Ex485/Em525; AID 898, 2007; inhibition, %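 (about 10 µM by stock and volumes)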; 0.16% of 140,000 active; YopH tyrosine phosphatase [Yersinia enterocolitica];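 active = inhibition of 50% or more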;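 note: controls were vehicle for no effect and minimum signal wells for full effect; inactives centre near -20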
Mtb betalactam – beta-lactam sensitization of Mtb H37Rv, H37Rv. M. tuberculosis H37Rv growth with meropenem, percent inhibition; hits of this screen are not shown here. inhibition, % at 25 µM. 0.27% of 330,000 active;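 active = about 74% or more and at least 40 points above the plate without the antibiotic, then above 30% in a dose series; inconclusive = first-round hits that could not be retested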;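 note: growth measured after seven days incubation then overnight dye step; 0% = bacteria only wells and 100% = bacteria with antibiotic; twin plates without the antibiotic show which effects depend on it; some results filed as inactive read as strong as hits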
Mtb growth – M. tuberculosis H37Rv growth inhibitors, H37Rv strain (AID 1626); M. tuberculosis H37Rv growth inhibition; higher % means a stronger effect; one-dose inhibition, % at 10 µM; IC50 in µM for titrated hits; 0.95% of 220,000 active;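 active = confirmed in a dose series; inconclusive = inhibition above 80% but not taken into the dose series; inactive = below 80% or under 30% at every dose of the series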;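 note: bacteria incubated seven days before Alamar blue readout; 0% = bacteria only wells and 100% = bacteria with antibiotic wells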
RecA intein inh – Mtb RecA intein splicing inhibitors, primary screen, biochemical, fluorescence, HTS | Protein RecA (Mycobacterium tuberculosis (strain ATCC 25618 / H37Rv)), P9WHJ3 | cell-free RecA intein splicing | inhibition, %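 (about 9 µM by stock and volumes)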 | 0.75% of 290,000 active | AID 2221, 2009; in the data active = inhibition above about 30%; inconclusive = no clear call, values can overlap the other calls;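 note: 0% = vehicle wells and 100% = reference inhibitor control wells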
Target sequence (P9WHJ3 whole entry, looked up): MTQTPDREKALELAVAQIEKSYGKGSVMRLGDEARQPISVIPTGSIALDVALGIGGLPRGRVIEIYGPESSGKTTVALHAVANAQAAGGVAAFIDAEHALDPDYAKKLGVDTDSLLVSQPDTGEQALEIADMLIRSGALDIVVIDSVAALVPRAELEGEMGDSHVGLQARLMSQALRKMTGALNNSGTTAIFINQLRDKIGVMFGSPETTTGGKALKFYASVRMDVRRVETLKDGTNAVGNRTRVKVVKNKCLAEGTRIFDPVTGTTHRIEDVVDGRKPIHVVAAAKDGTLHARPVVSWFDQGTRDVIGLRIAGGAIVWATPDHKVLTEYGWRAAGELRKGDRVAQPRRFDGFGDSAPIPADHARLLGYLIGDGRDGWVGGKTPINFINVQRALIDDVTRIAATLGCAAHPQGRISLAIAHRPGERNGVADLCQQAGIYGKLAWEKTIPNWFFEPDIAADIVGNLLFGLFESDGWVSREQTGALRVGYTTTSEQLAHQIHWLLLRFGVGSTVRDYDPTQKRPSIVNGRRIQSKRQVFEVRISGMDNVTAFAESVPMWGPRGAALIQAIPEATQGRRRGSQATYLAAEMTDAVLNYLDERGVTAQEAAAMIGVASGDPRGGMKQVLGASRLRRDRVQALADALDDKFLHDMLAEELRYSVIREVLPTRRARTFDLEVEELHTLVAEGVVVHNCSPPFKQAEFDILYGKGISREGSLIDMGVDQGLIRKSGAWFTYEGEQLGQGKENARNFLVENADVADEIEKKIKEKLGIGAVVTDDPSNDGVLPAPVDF
Arbovirus anti repeat – second read-out of Arbovirus anti, no call of its own (marks repeat the call); inhibition, %; measured here: 10K subset replicate screen; many hits read low in the repeat;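 first of two repeat runs on a subset; 0% = infected and 100% = uninfected wells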
The depositor's hits bear a star; ? = inconclusive; . = not tested or not shown. Only part of the results is shown (hit frequency here may not be typical).

SMILES | Arbovirus anti | YopH PTP inh | Mtb betalactam | Mtb growth | RecA intein inh | others
CCOC(=O)C1(CC2CC2)CCN(Cc2ccc(C(=O)OC)cc2)CC1 | -3 | . | -8 | 4% | 1.6
COc1ccc(CC(=O)N2CCN(c3ccccc3)CC2)cc1OC | . | . | -1 | . | -1.0
CSCCC(NC(=O)c1ccco1)C(=O)NCc1ccc(F)cc1 (stereo not drawn) | 5 | -35 | -5 | -1% | -0.2
Cc1cc(C)c2nc(-c3ccccn3)cc(C(=O)NCc3cc(C)n(C)n3)c2c1 | -6 | . | -3 | -1% | 0.1
COc1cc(OC)c(OC)cc1CN1CCN(c2ccc(F)cc2)CC1 | . | . | -8 | -2% | 4.6
O=S(=O)([N-]c1nc2ccccc2nc1-n1cc[n+](Cc2ccccc2)c1)c1ccc(Br)cc1 | . | . | -2 | -5% | -11
CCn1c(Cc2ccccc2)nnc1SCC(=O)NC1CC1 | 5 | -21 | -7 | -1% | -0.8
O=C(c1cnc2n(c1=O)CCS2)N1CCN(C(c2ccccc2)c2ccc(Cl)cc2)CC1 (stereo not drawn) | 1 | -28 | -7 | 10% | 5.7 | Arbovirus anti repeat=-16
COC(=O)c1ccc(NC(=O)CN2CCCC2)cc1 | -2 | -9 | 3 | 3% | -1.6 | Arbovirus anti repeat=-3
COC(=O)CCC(=O)NC(=S)Nc1ccccc1F | 4 | . | -11 | 4% | 1.2
COc1ccc(/C=C/C(=O)O)cc1S(=O)(=O)NCc1ccccc1 | . | . | -5 | -5% | -3.0
COc1ccc(N/C(N)=N/c2nc(CSc3ccc(C)cc3)cc(=O)[nH]2)cc1 | 1 | -36 | 12 | -3% | -3.8
CCOC(=O)c1c(C)oc2c1C(=O)c1ccccc1C2=O | -20 | . | 2 | -4% | 59*
CCOc1ccc(C(=O)COC(=O)c2cccc(-n3cnnn3)c2)cc1 | . | . | -2 | . | -0.1
CCCN(CC(=O)Nc1ccccc1C)C(=O)c1ccc(S(=O)(=O)N2CCCCCC2)cc1 | . | . | 1 | . | -1.1
Clc1ccc(Cn2nnc(-c3ccc(CN4CCOCC4)cc3)n2)cc1 | -24 | -15 | -1 | -1% | 1.6
CCOC(=O)c1sc2nc(CSc3ccccc3)nc(N3CCC(C(N)=O)CC3)c2c1C | -25 | . | 100 | ? | 11
O=C(Nc1ccccc1Cl)c1ccc2nc(N3CCOCC3)sc2c1 | . | . | -3 | . | 2.0
CCCS(=O)(=O)c1nc(S(=O)(=O)c2ccc(C)cc2)c(N2CCC(C(N)=O)CC2)s1 | . | . | 1 | . | 1.8
COc1cccc(NC(=O)CCC(=O)N2CC(C)Oc3ccc(C)cc32)c1 (stereo not drawn) | . | . | -4 | . | 0.4
COC(=O)c1c(NC(=O)C(=O)N2CCOCC2)sc2c1CCCC2 | . | . | 7 | . | 0.3
CCOc1ccc(-n2nnnc2-c2nc3ccccc3s2)cc1 | -8 | -12 | 5 | 2% | -1.6
Cc1nn(-c2nc3ccccc3s2)c(N)c1-c1ccc(Cl)cc1 | -3 | -31 | 21 | 13% | 2.0
COc1ccc(C=C2C(=O)c3ccccc3C2=O)cc1O | 1 | . | -1 | 2% | 25
CC1(C)Cc2c(sc3c2c(=N)n(Cc2ccco2)c(=O)n3CC(=O)Nc2ccccc2)CO1 | -7 | -29 | -8 | 13% | 4.3
Later entries.
SMILES | Arbovirus anti | YopH PTP inh | Mtb betalactam | Mtb growth | RecA intein inh | others
Cc1cccc(CN2C(=O)[C@H]3Cc4c([nH]c5ccccc45)C(C)(C)N3C2=O)c1 | . | . | 92 | 18% | 4.8
Cc1nn(Cc2ccc(C(=O)Nc3ccc(C(=O)OC(C)C)cc3)o2)c(C)c1Cl | -9 | -78 | -3 | 2% | 2.1
C=CCN(CC=C)C(=O)CN1C(=O)NC(C)(c2ccc3cc(OC)ccc3c2)C1=O (stereo not drawn) | . | . | 0 | . | 1.6
CC(C)c1nc2cc(C(=O)N3CCNC(=O)C3c3cccc(F)c3)ccc2o1 (stereo not drawn) | . | . | 3 | . | -1.9
NS(=O)(=O)c1cccc(NS(=O)(=O)c2ccc3ccccc3c2)c1 | . | . | 8 | . | 2.6
CN(C)S(=O)(=O)N1CCC(Oc2ccc(C(=O)NC3Cc4ccccc4C3)cc2)CC1 | . | . | 4 | . | 9.4
CC1CN(C(=O)CN2C(=O)c3ccccc3S2(=O)=O)CC(C)O1 (stereo not drawn) | 2 | -45 | 2 | 5% | 4.1
COc1ccc(/C=C(\C#N)C(=O)OCC(=O)Nc2c(C)cccc2C(C)C)cc1 | -2 | -28 | -6 | 3% | 0.3
Cc1cccc(C)c1NC(=O)NCc1ccco1 | . | . | -4 | -5% | -1.0
COc1ccc([N+](=O)[O-])cc1N(CC(O)CN(CC(C)C)CC(C)C)S(=O)(=O)c1ccc(C)cc1 (stereo not drawn) | . | . | 8 | 20% | 4.7
Cc1ccc(C)c(NS(=O)(=O)c2cc(C(=O)Nc3ccccc3-c3ccccc3)ccc2C)c1 | -10 | -16 | 1 | 8% | 14
C=C(C)CN(CC)c1ccc(N2C(=O)CCCC2=O)cc1[N+](=O)[O-] | . | . | -5 | . | -1.7
N#CCCn1cc(C(=O)Nc2ccc([N+](=O)[O-])cc2)c(-c2ccccc2)n1 | . | . | -4 | -5% | 3.5
CCCCNC(=O)N1CCOCCOCCN(C(=O)NCCCC)CCOCCOCC1 | 3 | -20 | 10 | -7% | 0.9
COc1ccc(OC)c(Nc2c3c(nc4ccccc24)CCC3)c1 | . | . | 9 | . | -0.5
CCOc1cc(C(=O)OCC(=O)Nc2cccc(C)c2)ccc1OCC(=O)N1CCOCC1 | -6 | -20 | -4 | -2% | -1.3
O=C1CCCCC1C(=O)c1cn(-c2ccc(Cl)c(Cl)c2)nn1 (stereo not drawn) | 1 | . | 2 | 8% | -0.1
O=C(NCC1CCCO1)c1cn(-c2ccccc2)nc1-c1ccc(F)cc1 (stereo not drawn) | . | . | 2 | . | 0.5
CC(C)CNC(=O)c1cccc(NC(=O)c2ccc(NC(=O)c3ccco3)cc2)c1 | -19 | -20 | -9 | -8% | 0.6
Cc1ccc(C)c(S(=O)(=O)N2CCCOC2CNC(=O)C(=O)NCCCN2CCOCC2)c1 (stereo not drawn) | . | . | -2 | . | -0.7
Cc1cc(C(=O)COC(=O)c2nccnc2N)c(C)n1C | 11 | . | -5 | -2% | 0.1
COc1cccc(-n2nnnc2SCC(=O)c2ccc(NC(C)=O)cc2)c1 | -21 | -46 | -10 | -5% | 0.5
CC(=O)Nc1ccc(Cl)c(C(N)=O)c1 | 0 | -6 | -2 | 3% | 0.8
COc1ccc(CN(C(=O)c2nsc(Cl)c2Cl)C(C(=O)NC2CCCC2)c2ccc(C)cc2)cc1 (stereo not drawn) | -13 | -23 | -3 | 20% | 13
O=C(CN1CCN(C(=O)C2CCCO2)CC1)Nc1cc(C(F)(F)F)ccc1Cl (stereo not drawn) | . | . | 3 | . | 0.0
Later entries.
SMILES | Arbovirus anti | YopH PTP inh | Mtb betalactam | Mtb growth | RecA intein inh | others
O=C(CSc1n[nH]c(-c2ccccn2)n1)Nc1ccc(Cl)cc1 | . | . | 86 | . | -3.5
O=C(O)c1cc2[nH]c3c(c2cc1Cl)CCCC3 | . | . | 4 | . | -3.7
CCOC(=O)c1cc(S(=O)(=O)NC2CCCCC2)cn1C | . | . | -1 | . | 0.5
C/C(=C\c1ccccc1)C(=O)NCCN1CCOCC1 | 2 | . | -4 | -3% | -0.4
CCN(CC)CC(=O)N1c2ccccc2Sc2ccc(Cl)cc21 | 13 | 4 | 7 | -7% | 1.0
Cc1noc(C)c1S(=O)(=O)N(CC(=O)N1CCc2ccccc21)c1ccc(C(C)C)cc1 | -4 | -19 | 5 | -8% | -1.0 | Arbovirus anti repeat=-8
Cc1c(CC(=O)O)c(=O)oc2c(C)c(OCc3nn[nH]n3)ccc12 | . | . | -13 | -15% | -1.1
CC(=O)Nc1ccc(NC(=O)c2c(C)nn(Cc3ccccc3)c2Cl)cc1 | . | . | -6 | . | 3.0
COc1ccc(Br)cc1S(=O)(=O)N(CC(=O)N1CCOCC1)c1ccccc1 | 4 | -43 | -3 | -6% | . | Arbovirus anti repeat=2
CCCc1cc(=O)oc2c(C)c(OCc3nn[nH]n3)ccc12 | . | . | -12 | -5% | -0.7
O=C(N/N=C1\CCCc2ccccc21)c1ccc([N+](=O)[O-])cc1 | -8 | -24 | 15 | 3% | -2.6
CCN1CCN(S(=O)(=O)c2ccc3c(c2)NC(=O)CS3)CC1 | . | . | -12 | . | 1.7
O=C(CC1SC2=NCCN2C1=O)Nc1ccccc1 (stereo not drawn) | -4 | -49 | -7 | -12% | -1.1
O=C(NCCCO)c1cc2c([nH]c3ccccc32)c(-c2ccc(F)cc2)n1 | . | . | 10 | . | 4.7
CCc1ccc(C(=O)NC2CCCCC2)s1 | 4 | 1 | 50 | 3% | 0.4 | Arbovirus anti repeat=-1
COc1ccc(NC(=O)CCNC(=O)C2CCN(S(=O)(=O)c3ccc(F)cc3)CC2)cc1OC | . | . | -2 | . | -1.1
Cc1cccc(NC(=O)/C(C#N)=C/c2cn(CC(=O)NCc3ccco3)c3ccccc23)c1C | -7 | -13 | 0 | 3% | -1.0
COc1ccc(C(CCNCc2ccc(N(C)C)cc2)c2ccccc2)cc1 (stereo not drawn) | . | . | 35 | . | 6.3
O=C1NC(c2ccccc2)=CC(c2ccccc2O)N1 (stereo not drawn) | . | . | 3 | . | -1.4
C/C(CC(=O)Nc1ccccc1Cl)=N\NC(=O)C(=O)NCCO | 0 | . | -1 | 4% | -0.8
Cc1ccccc1S(=O)(=O)Cc1ccc(C(=O)N2CC(C)CC(C)C2)o1 (stereo not drawn) | -10 | -43 | 2 | -2% | . | Arbovirus anti repeat=-3
CC(C)NC(=O)N(O)C1N(Cc2ccc3c(c2)OCO3)C(=S)SC1(C)C (stereo not drawn) | -4 | -9 | -11 | 2% | -2.1
C(=C\c1ccccc1)/CSc1nnc(-c2ccccc2)n1Cc1ccco1 | -16 | -39 | 17 | 9% | 14
CC1CCCCN1C(=O)CSc1nnc2c(n1)[nH]c1ccccc12 (stereo not drawn) | . | . | -1 | . | -1.3
CS(=O)(=O)N1CCCC(C(=O)NCc2ccco2)C1 (stereo not drawn) | 8 | -35 | 0 | -1% | -2.1

Of the compounds above, 4 contain a nitro group on carbon:
SMILES | Arbovirus anti | YopH PTP inh | Mtb betalactam | Mtb growth | RecA intein inh | others
COc1ccc([N+](=O)[O-])cc1N(CC(O)CN(CC(C)C)CC(C)C)S(=O)(=O)c1ccc(C)cc1 (stereo not drawn) | . | . | 8 | 20% | 4.7
C=C(C)CN(CC)c1ccc(N2C(=O)CCCC2=O)cc1[N+](=O)[O-] | . | . | -5 | . | -1.7
N#CCCn1cc(C(=O)Nc2ccc([N+](=O)[O-])cc2)c(-c2ccccc2)n1 | . | . | -4 | -5% | 3.5
O=C(N/N=C1\CCCc2ccccc21)c1ccc([N+](=O)[O-])cc1 | -8 | -24 | 15 | 3% | -2.6

The results go on:
SMILES | Arbovirus anti | YopH PTP inh | Mtb betalactam | Mtb growth | RecA intein inh | others
O=C1c2cccc3cccc(c23)C(=O)N1Cc1ccco1 | 2 | . | -5 | -3% | -0.4
C[C@H]1CC[C@H]2C(=O)N3[C@H](c4ccccc4Br)[C@@H](C)CC[C@H]3C(=O)N2[C@@H]1c1ccccc1Br | -20 | -30 | 84 | . | 25
O=C(CCC(=O)N1CCOc2ccccc21)NC1CCCCCC1 | . | . | 2 | . | 0.8
Cc1ccc(Cn2nnc3c(=O)[nH]c(C4CCCN(C(=O)c5ccco5)C4)nc32)cc1 (stereo not drawn) | . | . | -5 | . | 0.8
CN(C)S(=O)(=O)c1ccc(NC(=O)c2cc(F)c(F)cc2Cl)cc1 | -2 | -127 | 7 | 1% | 0.1
N#CC(c1nc2ccccc2nc1N1CCOCC1)S(=O)(=O)c1ccccc1 (stereo not drawn) | . | . | -8 | -10% | -1.7
CCN(CC)S(=O)(=O)c1ccc(-c2nnc(SC)o2)cc1 | -3 | 6 | 1 | -6% | 1.6
CCOc1ccc(S(=O)(=O)N2CCCC(C(=O)N3CCN(c4ccccc4)CC3)C2)cc1 (stereo not drawn) | . | . | 69 | . | 4.7
O=C1N=C2SCCN2/C1=C\c1ccccc1Cl | 8 | -48 | -9 | -12% | -1.1

In the list so far, these contain a COOH group.
SMILES | Arbovirus anti | YopH PTP inh | Mtb betalactam | Mtb growth | RecA intein inh | others
COc1ccc(/C=C/C(=O)O)cc1S(=O)(=O)NCc1ccccc1 | . | . | -5 | -5% | -3.0
O=C(O)c1cc2[nH]c3c(c2cc1Cl)CCCC3 | . | . | 4 | . | -3.7
Cc1c(CC(=O)O)c(=O)oc2c(C)c(OCc3nn[nH]n3)ccc12 | . | . | -13 | -15% | -1.1
